# BJeLR lethal: kills HRASV12-expressing BJeLR cells; BJeLR (HRASV12) viability, CellTiter-Glo ATP luminescence, 48 h; reference of the scale not given here; inhibition, % (no concentration beside the values); 300,000 compounds, 0.17% hits; AID 1554;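 active = replicate mean above 50%; inconclusive = above 50% but judged a plate artefact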;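 also: 50 nL library stock added to about 25 µL; numbers are from one replicate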
# RN4220 kill: S. aureus RN4220 growth inhibition. OD600, 16 h. inhibition, % (test concentration not listed). 330,000 compounds, 0.33% hits. AID 1259311;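 active = z-score of -3 or lower and OD600 up to 0.18 on both plates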;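 also: plate controls were untreated cells for no effect and reference antibiotic for full effect; stock transfer was 100 nL into about 80 µL; one replicate is shown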
# PrP UTR inh: suppresses PrP 5' UTR mRNA reporter expression. 340,000 compounds, 0.35% hits. inhibition, % (test concentration not listed). cell-based PrP 5' UTR mRNA reporter, plate reader;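 active = every replicate at 50% or more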;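 also: 0 = median of the neutral control wells; tested in H4 reporter cells; numbers are from one replicate; inactives centre near -14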
# ugtP null kill: kills S. aureus RN4220 lacking UgtP; S. aureus RN4220 ugtP deletion, OD600 growth, 16 h; some inactives read as strong as hits; growth inhibition, % (no concentration beside the values); 330,000 compounds, 0.54% hits; AID 1259309;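 active = z-score under -3 and OD600 up to 0.15 on both plates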;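 also: plate controls were untreated wells for no effect and antibiotic for full effect; wells of about 80 µL received 100 nL stock; the first replicate is given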
# Mtb hypoxia inh: Mtb hypoxia fluorescent reporter inhibition. M. tuberculosis hypoxia-regulated fluorescent reporter, fluorescence. fluorescence inhibition, % (no concentration beside the values). 300,000 compounds, 0.1% hits;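 active = 35 to 45% if threefold the growth effect, above 45% if 1.5-fold the growth effect; inactive = the rest, general growth blockers included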;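 also: wells of about 50 µL received 100 nL stock; 0% = vehicle wells and 100% = reference inhibitor wells; whole bacteria with a GFP reporter of the hypoxia response; strong numbers were not always called active; many hits fall short of the cut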
# Autofluor counter: flagged as autofluorescent in microsphere protease counterscreen; compound autofluorescence counterscreen, microsphere flow cytometry; active compounds read high; fluorescence intensity (test concentration not listed); 360,000 compounds, 3.1% hits;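 active = at least 3 SD above the mean of all compounds, about 16000 in these data; inconclusive = too few beads counted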;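 also: 100 nL of 1 mM stock went into each well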
# Mtb hypoxia inh growth: further read-out of Mtb hypoxia inh, marked with its call; growth inhibition, %; measured here: M. tuberculosis growth (absorbance);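 0% = vehicle and 100% = reference antibiotic; read after six days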
# Starred values were filed as active, the others as inactive; u = inconclusive; x = not tested or not shown; & = joins results of further samples.
# Order of values: BJeLR lethal	RN4220 kill	PrP UTR inh	ugtP null kill	Mtb hypoxia inh	Mtb hypoxia inh growth	Autofluor counter
> COCCNc1nc(-c2cc(C)n(CCc3ccc(OC)cc3)c2C)cs1
 : 1	1.7	-31	6	-3	-1	2988
> Cc1ccc(-c2nnc(CN3CCCCC3C)o2)cc1 (stereo not drawn)
 : -2	3.8	-9	-2	x	x	2785
> CCN(CCNC(=O)CS(=O)(=O)Cc1nc(-c2cccc(OC)c2)oc1C)c1ccccc1
 : -3	-0.1	-8	-10	-14	0	5750
> C#CC(C)(C)NC(=O)CSc1nc2c(c(=O)n(C)c(=O)n2C)n1CCCC
 : -5	0.8	-17	6	x	x	5584
> Cc1csc(N2CCCC2c2nc3cc(Cl)c(N4CCCCC4)cc3n2CCCO)n1 (stereo not drawn)
 : -6	-1.9	-18	1	4	14	2844
> O=C(Nc1ccc2c(c1)OCO2)C(=O)c1c[nH]c2ccccc12
 : -2	-1.2	-102	-11	-7	-3	5791
> COc1ccc(CC2CN3C(=NCC3C)N2CCNC(=O)c2ccc(C)c(Br)c2)cc1 (stereo not drawn)
 : x	-1.6&1.6	x	2&-5	5&12	14&12	x
> O=C(CN1CCOCC1)NN=Cc1cccc2ccccc12
 : x	-1.3	x	6	10	0	x
> CC(C)(C)NC(=O)N1CCn2cccc2C1c1ccccc1F (stereo not drawn)
 : 2	2.2	-15	13	4	-8	5678
> CCOc1ccc(C(=O)Nc2cccc(C(C)=O)c2)cc1[N+](=O)[O-]
 : -5	3.8	-15	-1	12	1	2008
> NC(=O)NC[C@@H]1CC[C@@H](Cc2ccc(-c3ccccc3)cc2)O1
 : x	3.8	-77	2	3	6	3401
> COc1ccc(C2/C(=C(/O)c3ccccc3)C(=O)C(=O)N2CCO)cc1 (stereo not drawn)
 : 1	-14	-22	-7	14	2	2428
> CC1=CC(=C2C(=O)c3ccccc3C2=O)C=C(C)N1C
 : 12	1.9	-48	7	7	0	2081
> O=C(O)Cc1ccc(NS(=O)(=O)c2ccccc2Cl)cc1
 : 1	6.1	-21	2	3	4	4387
> CCOC(=O)c1nnn(-c2nc(N(C)C)nc(N(C)C)n2)c1C
 : 4	5.6	-19	7	0	14	3858
> CCn1c(SCC(=O)Nc2ccc3c(c2)OCO3)nc2ccccc21
 : -11	8.0	-8	-7	-1	7	9329
> N#Cc1ccccc1NC(=O)C1CC(=O)N(c2ccc3c4c(cccc24)CC3)C1 (stereo not drawn)
 : 3	1.7	-32	4	1	15	2275
> CCN(C(=O)COC(=O)COc1ccccc1Cl)c1c(N)n(Cc2ccccc2)c(=O)[nH]c1=O
 : x	4.4	-15	12	7	3	x
> Cc1ccc(/C=N/NC(=O)CN2CCN(S(=O)(=O)c3ccc(Br)cc3)CC2)s1
 : -8	x	-10	x	x	x	2611
> Cc1ccc(C2NC(=O)c3c(sc(C)c3C)N2)c(O)c1 (stereo not drawn)
 : 1	-6.4	-18	-2	-1	-4	9326
> CC1CCc2nn(CC(=O)NCCN3CCOCC3)cc2C1 (stereo not drawn)
 : -6	0.2	-17	10	x	x	5282
> O=C(NN=Cc1ccccc1F)c1cc2c(ccc3ccccc32)o1
 : x	3.0	x	-8	10	4	x
> Cc1c(NC(=O)COc2cccc(Cl)c2Cl)c(=O)n(-c2ccccc2)n1C
 : 12	4.2	-15	5	0	-3	5677
> C=CCN(N=Nc1cccc([N+](=O)[O-])c1)c1cccc([N+](=O)[O-])c1
 : -3	1.9	-9	6	14	-2	4129
> O=C(NCCCn1ccnc1)c1nn2c(C(F)(F)F)cc(-c3ccc(Br)cc3)nc2c1Cl
 : -8	1.2	2	-3	2	4	1945
> CCC(C#N)(CC)P(=S)(c1ccccc1)c1ccccc1
 : 0	12	-36	24	20	2	2479
> CCCc1cc(=O)oc2cc(C)cc(OCC(=O)NCc3ccncc3)c12
 : 9	6.3	-6	5	1	3	5464
> Cc1ccc(NC2CNC(=O)NC2=O)cc1C (stereo not drawn)
 : x	0.9	-7	0	11	7	4361
> COc1ccc2c(c1)OC13CCCCC1C2C(C(=O)c1ccccc1)C(=O)N3 (stereo not drawn)
 : 2	6.7	-2	14	11	5	5720
> CC(C)OCCCNC(=O)c1c(N)n(Cc2cccs2)c2nc3ccccc3nc12
 : -5	x	-16	x	x	x	2542
> COc1ccc(Nc2ccc(S(=O)(=O)N3CCCCC3)cc2[N+](=O)[O-])cc1
 : 1	x	-5	x	x	x	7563
> Cc1cccc(NC(=O)c2cccnc2)c1
 : -2	1.0	-17	5	x	x	x
> C=C(C)C(=O)Nc1ccc(OC(F)(F)C(F)F)c(NC(=O)C(=C)C)c1
 : -5	4.6	7	4	7	1	6534
> O=C(Cc1ccccc1)NC(CSSCC(NC(=O)Cc1ccccc1)C(=O)O)C(=O)O (stereo not drawn)
 : x	3.9	-56	4	23	16	3573
> Cc1ccccc1OCC(=O)NNC(=O)CCN1C(=O)c2ccccc2C1=O
 : 7	4.7	-22	0	3	0	4098
> COc1ccc2[nH]cc(CCN=C3SCC(=O)N3C)c2c1
 : -5	0.4	-28	-4	-5	8	3748
> Cc1cc(-c2ccc(C)c(S(=O)(=O)NC(C)Cc3ccco3)c2)on1 (stereo not drawn)
 : 7	4.6	-10	7	3	6	5686
> O=C(Cc1cccc(NC(=O)C2CCCN(C(=O)c3ccccc3)C2)c1)Nc1cccc(C(=O)N2CCOCC2)c1 (stereo not drawn)
 : x	5.4	-16	1	-3	5	3682
> COc1ccc(N2C(=O)CSC2c2cccc(F)c2)c(OC)c1 (stereo not drawn)
 : 6	5.0	-10	0	7	8	4293
> Cc1nnc(SCc2c(Cl)cccc2Cl)s1
 : -4	2.4	-29	-6	x	x	5252
> CCCc1nnc(SCC(=O)N2CCOCC2)n1C
 : -3	4.2	-16	5	-1	-7	9219
> CCN(C(=O)CN1C(=O)NC2(CCc3ccccc32)C1=O)C1CCS(=O)(=O)C1 (stereo not drawn)
 : x	-1.4	-17	-1	6	11	8051
> COc1cc2cc(Oc3ccc4ccc(=O)oc4c3)c(=O)oc2cc1OC1OC(COC(=O)CC(C)(O)CC(=O)O)C(O)C(O)C1O (stereo not drawn)
 : -10	0.0	-11	3	x	x	5043
> CN(C)c1cc(NN=Cc2ccccc2C(F)(F)F)nc(N(C)C)n1
 : x	30	x	82	1	5	x
> O=C1OCCC1N1C(=O)c2ccccc2S1(=O)=O (stereo not drawn)
 : -3	2.1	2	-1	-1	-1	3135
> Cc1ccc(OCC(=O)N2CCN(C(=O)c3cccc(F)c3)CC2)cc1
 : 8	5.3	1	-1	2	11	4160
> CCOc1cccc(C(=O)Nc2cccc(C(=O)NCC(C)C)c2)c1
 : 7	3.4	-24	7	0	5	10610
> O=C(NC(=O)c1cccc(F)c1)OC[C@@H]1CCCN2CCCC[C@H]12
 : -4	7.1	-61	-14	2	4	6308
> COc1ccc(OC)c(N(CC(=O)Nc2cccnc2)S(=O)(=O)c2ccccc2)c1
 : 4	3.8	4	-2	3	5	9713
> CCC(=O)Nc1c(C#N)c2nc3ccccc3nc2n1-c1ccccc1C
 : -2	2.5	-16	-10	5	5	3983
> CCn1c(SCC(N)=O)nc2c1c(=O)n(C)c(=O)n2C
 : 0	0.1	-20	5	9	4	7877
> O=C(NCCN1C(=O)C2C3C=CC(C3)C2C1=O)Nc1ccc(Br)cc1 (stereo not drawn)
 : -8	-1.4	-51	3	x	x	6292
> O=C(OCn1ncc(Br)c(Br)c1=O)c1ccccc1Cl
 : -13	15	-34	60	x	x	3438
> O=C(COC(=O)c1cn(-c2ccccc2)nc1-c1cccs1)NC1CC1
 : 4	-3.9	-12	-17	0	7	3153
> O=C(c1c(F)cccc1F)N1CCC(O)(c2ccc(F)cc2)CC1
 : 3	3.6	-26	0	8	2	4088
> CCN(C(=O)COc1ncnc2sccc12)c1ccccc1
 : x	2.9	-34	-4	6	2	4673
> Cc1cc(C(=O)O)ccc1-c1ccc(/C=N/n2cnnc2)o1
 : -1	x	-26	x	x	x	3798
> Cc1cc(NC(=O)CSc2nnc(CNc3ccc(F)cc3)n2C2CCCCC2)no1
 : 8	4.1	-8	-6	1	2	23158*
> CCC(=O)NC(=NOCc1ccc(F)cc1)c1nonc1NC(=O)CC
 : x	1.1	x	-2	13	12	x
> CSc1ccccc1OCc1cc(C(=O)N2CCCC2c2nonc2C)no1 (stereo not drawn)
 : -6	8.1	-73	3	4	1	4948

# Next part:
# Order of values: BJeLR lethal	RN4220 kill	PrP UTR inh	ugtP null kill	Mtb hypoxia inh	Mtb hypoxia inh growth	Autofluor counter
> CCOc1ccc(OCC)c(NC(=O)CSc2nc3cccnc3n2C)c1
 : 3	-1.0	-8	14	4	6	2749
> COc1ccc(OC)c(N(CC(=O)O)S(=O)(=O)c2ccc(OC)c(OC)c2)c1
 : 2	1.5	-53	-1	0	4	7357
> CCOC(=O)c1sc(NC(=S)NC(=O)c2ccccc2Cl)c(C(=O)OCC)c1C
 : -1	0.4	0	4	0	5	3411
> Cc1ccccc1-c1nnc(SCC(=O)Nc2ccc3c(c2)OCCO3)n1N
 : -4	2.2	-30	-2	3	6	u
> CCN(CC)CCn1c2ccccc2c2nc3ccc([N+](=O)[O-])cc3cc21
 : -3	5.0	-51	6	14	4	6101
> O=C(c1cc2ccccc2oc1=O)N1CCC2(CC1)OCCO2
 : 11	3.6	-20	3	4	3	10871
> Cc1noc(NS(=O)(=O)c2ccc(NC(=O)c3ccoc3C)cc2)c1C
 : -14	6.5	-3	11	5	10	6406
> CC(=NNC(=O)C1CCN(S(=O)(=O)c2ccc(C)cc2)CC1)c1cccc([N+](=O)[O-])c1
 : x	3.4	x	5	16	8	x
> CC(=O)N1CCN(C(=O)COC(=O)CNC(=O)c2ccccc2C)CC1
 : -2	3.8	-4	5	-12	0	6311
> COC(=O)[C@@]12CCCCN1[C@H](c1ccc(SC3CCCCC3)c(OC)c1)[C@@H]1C(=O)N(C)C(=O)[C@@H]12
 : 3	x	-4	x	x	x	3841
> CC(=O)NCCC1CCCCN1C(=O)c1cc(COc2cc(C)ccc2C)on1 (stereo not drawn)
 : 0	3.2	-116	-4	9	-6	4175
> COc1ccc([N+](=O)[O-])cc1NC(=O)CSCc1ccc(Br)cc1
 : -9	9.6	-16	-8	7	5	7141
> Cc1nc(N)ncc1Sc1ccc(Cl)cc1
 : 2	5.2	-8	12	10	5	4386
> Cc1cc(C=NN2CCN(C)CC2)c(C)n1-c1ccc(Cl)cc1
 : x	-0.7	x	-5	10	2	x
> CC(=O)NCCC(=O)Nc1cc(S(=O)(=O)N2CCCCC2)ccc1Oc1cccc(C)c1
 : -4	3.4	-8	2	5	-3	5832
> [O-]C(=C(C(=S)Nc1cccc2ccccc12)[n+]1cccc(CO)c1)c1ccc(Cl)s1
 : x	-3.7	-5	-2	2	3	3547
> COC(=O)c1cc(NCc2cccs2)ccc1N1CCOCC1
 : 0	5.1	-7	9	1	8	10892
> O=S(=O)(Nc1nc2ccccc2[nH]1)c1ccccc1
 : 6	4.6	-14	-9	17	2	11328
> Cc1noc(C)c1CN(C(=S)NC1CC1)c1ccccc1
 : 4	5.2	-14	4	10	7	2547
> CCOc1ccc(/C(O)=C2/C(=O)C(=O)N(c3ncccn3)C2c2ccc(Cl)cc2)cc1 (stereo not drawn)
 : 4	-1.1	x	22	8	10	5419
> Oc1ccccc1C=NNc1cccc2cccnc12
 : x	7.8	x	83*	2	5	x
> CC(C)CC(CO)N1CCN(Cc2ccccc2)CCC1=O (stereo not drawn)
 : x	8.7	x	-1	0	6	x
> O=c1c2ccccc2cnn1Cc1n[nH]c(=S)n1-c1ccc(F)cc1
 : 3	7.5	-13	2	14	12	1938
> CCC1S/C(=N/N=C/c2ccco2)NC1=O (stereo not drawn)
 : -2	x	-15	x	x	x	6872
> O=C(Cn1c(=O)oc2cc(S(=O)(=O)N3CCc4ccccc43)ccc21)N1CCCCC1
 : 16	-1.9	-9	3	x	x	4415
> CCc1cccc(NC(=O)CCC(=O)N2CCSc3ccccc32)c1
 : -5	3.2	-18	0	x	x	5719

# Filtered by structure, the entries above containing a CF3 group.
# Order of values: BJeLR lethal	RN4220 kill	PrP UTR inh	ugtP null kill	Mtb hypoxia inh	Mtb hypoxia inh growth	Autofluor counter
> O=C(NCCCn1ccnc1)c1nn2c(C(F)(F)F)cc(-c3ccc(Br)cc3)nc2c1Cl
 : -8	1.2	2	-3	2	4	1945
> CN(C)c1cc(NN=Cc2ccccc2C(F)(F)F)nc(N(C)C)n1
 : x	30	x	82	1	5	x
